# VDR inh: vitamin D3 receptor (human) inhibition. P11473. AID 504847. VDR-SRC2-3 peptide fluorescence polarization, 2 h. actives 0.93% (n = 400,000). Potency, µM, for the others: max response, negative = inhibition, hits mostly inhibitors; active = well fitted inhibition curve with a large enough effect; inconclusive = small, poorly fitted or top-dose-only effect, or another doubt; inactive = no such curve, though single readings can be large or run the other way; note: series mostly up to about 120 µM
# Target sequence (P11473 whole entry, looked up): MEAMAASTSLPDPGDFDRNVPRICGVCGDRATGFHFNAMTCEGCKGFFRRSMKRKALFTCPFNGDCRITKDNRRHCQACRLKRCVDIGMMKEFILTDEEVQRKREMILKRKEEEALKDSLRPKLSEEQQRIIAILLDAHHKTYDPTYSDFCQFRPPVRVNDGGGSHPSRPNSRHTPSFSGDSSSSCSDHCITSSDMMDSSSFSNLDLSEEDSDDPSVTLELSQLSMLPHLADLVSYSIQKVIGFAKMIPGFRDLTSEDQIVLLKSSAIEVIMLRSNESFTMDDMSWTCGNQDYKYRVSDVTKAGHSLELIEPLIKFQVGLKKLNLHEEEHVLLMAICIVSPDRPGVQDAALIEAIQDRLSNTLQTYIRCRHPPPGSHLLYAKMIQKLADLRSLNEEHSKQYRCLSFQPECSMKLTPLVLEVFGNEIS
#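 Fluorescence polarization assay measuring small-molecule disruption of VDR binding to the coregulator peptide SRC2-3. Compounds were pin-transferred (23 nl) into the reagent mix and incubated 2 h at room temperature before reading.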
# * hit, by the source's call; ? = inconclusive; & = joins results of further samples. % is set by controls: 0 for no effect and ±100 for the full control effect; potency is the fitted concentration of half-maximal effect. Not all compounds are listed; the hit share may differ from the screen's.
Structure,VDR inh
S=c1[nH]nc(-c2ccco2)n1/N=C/c1cccc(Cl)c1Cl,-9.5%
CC(C)Cn1c(N)c(C(=O)CSc2nc3ccccc3n2C)c(=O)n(C)c1=O,-5.8%
O=C(CSc1nc2ccccc2s1)N1c2ccccc2Sc2ccc(Cl)cc21,16.2%
CCCCOCCCNC(=O)N[C@@H](CCSC)C(=O)OC,14.9%
COc1ccc(-c2onc(C)c2C)cc1S(=O)(=O)NCc1cccs1,10.0%
CSc1nccc(Oc2ccc(C#N)cc2)n1,11.3%
COc1cccc(C=Nc2cc(C)cc(C)c2)c1O,14.6%
CCCN1Cc2cccc(C(=O)Nc3ccc(OC)c(OC)c3)c2C1=O,2.5%
O=C1C2C3C=CC(C3)C2C(=O)N1c1ccc(-c2nc3ccccc3o2)cc1 (stereo unspecified),2.3%
CCOC(=O)N(NC(=O)C(O)(c1ccccc1)c1ccccc1)c1ccccc1,0.4%
Cc1ccc(S(=O)(=O)CCSc2cccc(C(=O)O)c2)cc1,-13.9%
COc1ccccc1N1CCN(C(=O)NCc2cccc(C(F)(F)F)c2)CC1,-10.0%
CCOc1cccc2sc(NC(=O)CC)nc12,-3.0%
CC(=O)Oc1ccc(N(C(C)=O)S(=O)(=O)c2ccc(C)cc2C)c2ccccc12,-19.5%
COc1cc(/C=N/NC(=O)c2ccc3c(c2)OCCO3)c(Br)c(Br)c1O,-5.9%
COCCNC(=O)c1onc(CSc2cc(C)cc(C)c2)c1C(=O)O,-12.1%
CCc1nnc(NC(=O)CSCc2cc(=O)c3ccc(C)cc3[nH]2)s1,1.2%
CCN1CCN(Cc2ccc(NC(=O)c3ccc(C)c(NC(=O)N4CCNC4=O)c3)cc2C(F)(F)F)CC1,4.9%&-5.2%
COc1cc2c(C(=O)N3CCN(c4cc(Cl)ccc4C)CC3)cn(CC(C)C)c(=O)c2cc1OC,2.0%
O=C(COC(=O)c1ccccc1NCCO)NNC(=O)c1cccs1,2.9%
CC(OC(=O)c1cccc(S(=O)(=O)N(C)C)c1)C(=O)NCc1ccc2c(c1)OCO2 (stereo unspecified),-9.3%
CCOC(=O)[C@H]1[C@H]2COc3ccccc3[C@@H]2N2C(=O)c3ccc(Cl)cc3NC(=O)[C@@]12C,-10.8%
O=C(O)c1ccc(N2C(=O)CCCC2=O)cc1,2.8%
COc1ccc(Cc2nc(C)cc(Cl)n2)cc1[N+](=O)[O-],-2.0%
Cc1occc1C(=O)NC(C)C(C)(C)C (stereo unspecified),5.6%
CCN1CCC(O)(/C=C/c2ccc(C(C)C)cc2)C(C(=O)/C=C/c2ccc(C(C)C)cc2)C1 (stereo unspecified),39.8µM*
CCSc1nnc(NC(=O)c2ccc(Br)s2)s1,5.6%
O=C(CSc1nncn1-c1ccccc1F)NC1CC1,6.2%
CCOC(=O)N1CCN(C(=O)c2cc3ccc(OC)cc3[nH]2)CC1,-6.9%
O=C(CNc1n[nH]c(=O)[nH]c1=O)N/N=C/c1cccnc1,-7.8%
Cc1ccc(CSCC(=O)N/N=C/c2sccc2C)cc1,0.5%
CCOC(=O)C1CCN(C(=O)/C=C/c2cccs2)CC1,27.7%
CN(C(=O)c1cccc(NC(=O)Cc2ccc(NC(=O)C3CCN(C(=O)C4CCCC4)CC3)cc2)c1)C1CCCC1,10.8%
OC(c1ccccc1)C(CN1CCOCC1)c1ccccc1 (stereo unspecified),12.7%
CCOc1ccc(CCNS(=O)(=O)c2c(C)nc3sc(C)cn3c2=O)cc1OCC,12.0%
Cc1ccc2nc(SCCC(=O)O)cc(C)c2c1,8.3%
CC1CC(C)CN(S(=O)(=O)c2ccc(C(=O)OCC(=O)NCCN3C(=O)CSC3=O)cc2)C1 (stereo unspecified),4.1%
Cc1cccc(C)c1NC(=O)C(=O)NCCc1c[nH]c2ccccc12,3.7%
Cc1ccc(CN2C(=O)C(C)Nc3ncnc(N4CCOCC4)c32)cc1 (stereo unspecified),-17.7%
CN(CC(=O)Nc1c(Cl)cccc1Cl)C(=O)c1ccc2ccccc2n1,-4.6%
Cc1cc(C)cc(NC(=O)c2ccc(NC(=O)C3C4CC5OC(=O)C3C5C4)cc2)c1 (stereo unspecified),7.4%
CCOc1ccccc1C1CC(c2ccc(Cl)cc2)Nc2nc(N)nn21 (stereo unspecified),-14.1%
CSc1ccc(C2=CC(=O)C[C@H](c3ccc4c(c3)OCO4)C2)cc1,-7.5%
Cc1cc(F)cc(C)c1Cn1cnc2c(cnn2C(C)(C)C)c1=O,10.2%
Cc1ccnc(NS(=O)(=O)c2ccc(NC(=O)C3CCCCC3C(=O)O)cc2)n1 (stereo unspecified),20.5%
C(=N\c1nc2ccccc2n1Cc1ccccc1)/c1cccs1,-0.7%
Cc1ccc(C(=O)CN2C(=O)NC3(CCCCCC3)C2=O)c(C)c1,-19.2%
CCc1nn(CC(=O)NCCCN2CCN(C)CC2)c(=O)c2cc3sccc3n12,-3.8%
O=C(c1ccc(CS(=O)(=O)c2c(Cl)cccc2Cl)o1)N1CCCC1,-18.7%
Cc1ccc(C(=O)N/N=C/c2nc3ccccc3n2C)cc1,-4.5%
Cc1ccc(NC(=O)c2ccc(COc3ccc4c(c3)CCC4)cc2)c(C)c1,?
CN(C)S(=O)(=O)c1ccc(C(=O)OCc2ccc([N+](=O)[O-])cc2)cc1,0.6%
Cc1ccccc1NP1(=O)OCCCN1Cc1ccccc1Cl (stereo unspecified),-10.5%
O=C1OCCC1Sc1nnnn1-c1ccccc1 (stereo unspecified),-3.2%
COc1ccc(CCNS(=O)(=O)c2c(C)[nH]c(C)c2C(=O)N2CCCCC2)cc1OC,-10.1%
Fc1ccc(NC(=S)Nc2ccccc2Cl)cc1,-6.1%
O=C1c2cccc3cc([N+](=O)[O-])cc(c23)C(=O)N1c1nncs1,4.4%
COc1cccc(N2CCN(C(=O)c3c(C)oc4ncnc(N5CCCCC5)c34)CC2)c1,23.9%
O=C1C2C(c3ccccc3)C=CC(c3ccccc3)C2C(=O)N1CCO (stereo unspecified),4.0%
COc1cccc(C2=NOC(C(=O)Nc3ccc4c(c3)OCO4)C2)c1 (stereo unspecified),-2.0%

# Additional structures.
mol | VDR inh
CN(C(=O)c1ccccc1C(=O)OCC(=O)Nc1cccc(Br)c1)c1ccccc1 | 0.2%
CC(=O)NC1=NN(C(C)=O)C(c2ccc(C)cc2)S1 (stereo unspecified) | -9.7%
CC(=O)c1ccccc1C(=O)N(C)C1CCCN(Cc2ccccc2F)C1 (stereo unspecified) | -7.1%
CCOC(=O)C1=C(C)NC(=O)NC1c1cc2c(cc1Br)OCO2 (stereo unspecified) | -27.8%
CCCCCCNc1nc2c(c(=O)n(C)c(=O)n2C)n1Cc1cccc(C)c1 | -2.8%
Cc1ccc(N(CCC#N)C(=O)COC(=O)c2cc(C)oc2C)cc1 | ?
Cc1ccc(-c2nc(CN(C)C)cc(CN(C)C)c2O)cc1 | 0.1%
Nc1cc(S(=O)(=O)N2CCCCC2)ccc1N1CCCCC1 | -8.0%
O=C(NCC(=O)N1CCN(S(=O)(=O)c2ccccc2F)CC1)c1ccc2c(c1)OCO2 | -3.1%
NC(=O)c1ccsc1NC(=O)CCS(=O)(=O)c1ccccc1 | -4.1%
CCOC(=O)c1c(C)[nH]c(O)c1C=Nc1ccc(C(F)(F)F)cc1 | -6.9%
CCOC(=O)C1CCCN(C(=O)C2CCN(S(=O)(=O)c3c(C)noc3/C=C/c3ccccc3F)CC2)C1 (stereo unspecified) | 5.3%&4.2%
COC(=O)C1=C(C)C(c2ccc(OC)cc2)NC(=S)N1 (stereo unspecified) | -11.0%
Cc1ccc(S(=O)(=O)Nc2ccc(F)cc2)cc1C(=O)N1CCOCC1 | 0.5%
CC(C)(C)NC(=S)NC(=O)C12CCC3CC(CC(C3)C1)C2 | -2.4%
O=C(c1ccc(=O)[nH]n1)N1CCN(S(=O)(=O)c2ccc(C(F)(F)F)cc2)CC1 | -4.0%
COc1ccccc1-c1cc2nc(C)c(CCC(=O)NCc3ccco3)c(C)n2n1 | -12.4%
CCN(CC)S(=O)(=O)c1ccc(N2CC(C(=O)NCc3cccnc3)CC2=O)cc1 (stereo unspecified) | -10.3%
O=C(CSc1nnnn1CCCO)Nc1ccc2c(c1)OCO2 | -23.9%
CCN(Cc1ccccc1)C(=O)CSc1n[nH]c(N)n1 | 9.5%
O=c1cc(-c2ccccc2)c2cc(Cl)c(O)c(CN3CCOCC3)c2o1 | -22.3%
O=S1(=O)N=C(N2CCN(Cc3ccc4c(c3)OCO4)CC2)c2ccccc21 | -7.2%
O=C(CSc1ccc(Cl)cc1Cl)N1CCC(c2nc3ccccc3s2)CC1 | 28.4%
CC(=O)c1cnc2c(-c3ccc(Cl)cc3)cnn2c1C | -7.3%
FC(F)(F)c1cccc(OCCOCCn2cncn2)c1 | 5.4%
Cn1c(=O)cc(OCC(=O)N2CCC(N3CCCCC3)CC2)c2ccccc21 | -1.9%
Cc1cn(CC(=O)NCC(c2ccccc2)c2ccccc2)c(=O)[nH]c1=O | -29.1%
CCN(C(=O)CN1C(=S)NC(C)(C)CC1C)c1ccc(C)c(C)c1 (stereo unspecified) | -3.9%
CCc1ccc(OCCOCCN2CCN(C)CC2)cc1 | -5.5%
OC12CCCCC1C(c1ccc3c(c1)OCO3)N(Cc1cccc(F)c1)CC2 (stereo unspecified) | -2.2%
CC1CC1C(=O)OCC(=O)NCc1ccccc1 (stereo unspecified) | -7.5%
Cc1ccc(S(=O)(=O)CCSc2nc(C)cc(C(F)(F)F)c2C#N)cc1 | -6.8%
CCOC(=O)N1CCN(C(=O)CN(c2cccc(Cl)c2)S(=O)(=O)c2ccccc2)CC1 | -5.7%
COCCN1Cc2cccc(C(=O)NCc3cccnc3)c2C1=O | -8.4%
CS(=O)(=O)N1CCC2(CCN(C(=O)Nc3cccc(C#N)c3)CC2)CC1 | -5.0%
CN1CCN(C(=S)Nc2ccc(Cl)c(Cl)c2)CC1 | -7.4%
O=C(c1cccs1)N1N=C(c2ccccc2)CC1c1ccccc1O (stereo unspecified) | -0.8%
CN(C)c1ccc(C#Cc2ccc3cc(CCO)oc(=O)c3c2)cc1 | -14.2%
CC(Nc1ccc2c(c1)OCCO2)C(=O)N1CCc2ccccc21 (stereo unspecified) | -1.1%
CCc1ccc(NC(=O)c2sc3nc4n(c(=O)c3c2C)CCC4)cc1 | 9.8%
COc1ccc(NC(=O)c2oc3ccc(S(=O)(=O)N(C)C4CCCCC4)cc3c2C)cc1Cl | -0.5%
CC(=O)Nc1ccc(S(=O)(=O)N(Cc2ccccc2)Cc2ccccc2)cc1 | -12.9%
CNc1nccc(-c2ccc(F)cc2)c1C#N | 3.1%
CCNC(=O)Nc1ccc(S(=O)(=O)Nc2cnc(C)nc2C)cc1 | 10.2%
CC(C)Oc1ccc(CNC(=O)c2cc3ccccn3n2)cc1 | 18.4%
NS(=O)(=O)c1ccc(CCNC(=O)CSc2nc3ccsc3c(=O)n2CC2CCC(C(=O)O)CC2)cc1 (stereo unspecified) | -31.3%
CC1(C)Cc2cccc(OCC(=O)Nc3cc(C(F)(F)F)ccc3N3CCOCC3)c2O1 | -7.0%
N#C/C(C(=O)NCc1ccccc1)=C1/N=C(NC(=O)c2ccco2)c2ccccc21 | -5.1%
NC(=O)c1nnn(-c2nonc2N)c1-c1ccc([N+](=O)[O-])cc1 | 1.1%
O=[N+]([O-])c1ccccc1CSc1nnc2ccccn12 | -12.3%
C/C(=N/NC(=O)CCC(=O)Nc1ccc(Br)cc1)c1ccc(Br)cc1 | -1.9%
O=C1N=c2ccccc2=C1c1sc(NS(=O)(=O)Cc2ccccc2)nc1O | -18.8%
Cc1ccccc1NC(=S)NCc1cccn1C | 8.2%
c1cnc2ccc(C(c3nnnn3C3CCCC3)N3CCN(c4nc5ccccc5s4)CC3)cc2c1 (stereo unspecified) | -4.7%
CC(C)c1csc(CN2CCC(n3nccc3NC(=O)Cc3ccccc3)CC2)n1 | 8.0%
CC1C(=O)N2CCCc3cc(NC(=O)COc4ccccc4)cc1c32 (stereo unspecified) | -5.9%
O=C(Cn1cc(C(=O)C2CC2)c2ccccc21)Nc1ccc(F)cc1 | -1.6%
CCc1cccc(NC(=O)C2CCCN(S(=O)(=O)c3c(C)[nH]c(=O)[nH]c3=O)C2)c1 (stereo unspecified) | 5.2%
O/N=C/c1cc(Cl)ccc1OCc1ccccc1Cl | 0.8%
CCOC(=O)c1cccc(NC(=O)c2cc(CN3CCCC3)on2)c1 | 9.8%

# Later entries.
mol | VDR inh
Cc1cc2c(cc1S(=O)(=O)NCc1ccccc1)NC(=O)CO2 | 8.1%
CN(C)S(=O)(=O)n1cc(/C=C(\NC(=O)c2ccccc2)C(=O)NCCN2CCOCC2)c2ccccc21 | -4.9%
COc1ccc(CNS(=O)(=O)c2c(C(=O)N3CCCCCC3)c(C)n(C)c2C)cc1 | -7.9%
CSCCC(NS(=O)(=O)c1ccc(C)cc1)C(=O)Nc1ccc(C)cn1 (stereo unspecified) | ?
